# Source: PubChem
# BJeLR lethal – BJeLR cell viability loss; BJeLR (HRASV12) viability, CellTiter-Glo ATP luminescence, 48 h; reference of the scale not given here; 300,000 compounds, 0.17% hits; AID 1554; inhibition, % (no concentration beside the values);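 active = replicate mean above 50%; inconclusive = above 50% but judged a plate artefact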;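 note: 50 nL library stock added to about 25 µL; numbers are from one replicate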
# ugtP null kill – growth inhibition of S. aureus ugtP deletion strain | growth inhibition, % (concentration not given with the values) | 330,000 compounds, 0.54% hits | S. aureus RN4220 ugtP deletion, OD600 growth, 16 h; some inactives read as strong as hits;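 active = z-score under -3 and OD600 up to 0.15 on both plates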;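 note: plate controls were untreated wells for no effect and antibiotic for full effect; wells of about 80 µL received 100 nL stock; the first replicate is given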
# PrP 5UTR inh – inhibition of PrP 5' UTR reporter expression; cell-based PrP 5' UTR mRNA reporter, plate reader; inhibition, % (concentration not given with the values); 340,000 compounds, 0.35% hits; AID 488862;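 active = every replicate at 50% or more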;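 note: 0 = median of the neutral control wells; tested in H4 reporter cells; numbers are from one replicate; inactives centre near -14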
# Mtb hypoxia rep – Mtb hypoxia fluorescent reporter inhibition. 300,000 compounds, 0.1% hits. fluorescence inhibition, % (concentration not given with the values). M. tuberculosis hypoxia-regulated fluorescent reporter, fluorescence. AID 1159583;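 active = 35 to 45% if threefold the growth effect, above 45% if 1.5-fold the growth effect; inactive = the rest, general growth blockers included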;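 note: wells of about 50 µL received 100 nL stock; 0% = vehicle wells and 100% = reference inhibitor wells; whole bacteria with a GFP reporter of the hypoxia response; strong numbers were not always called active; many hits fall short of the cut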
# RN4220 kill – kills Staphylococcus aureus RN4220. S. aureus RN4220 growth, OD600, 16 h. inhibition, % (test concentration not listed). 330,000 compounds, 0.33% hits. AID 1259311;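 active = z-score of -3 or lower and OD600 up to 0.18 on both plates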;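 note: plate controls were untreated cells for no effect and reference antibiotic for full effect; stock transfer was 100 nL into about 80 µL; one replicate is shown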
# Autofluor counter – flagged as autofluorescent in microsphere protease counterscreen; fluorescence intensity (no concentration beside the values); compound autofluorescence counterscreen, microsphere flow cytometry; stronger effect = higher value; AID 624483; 360,000 compounds, 3.1% hits;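 active = at least 3 SD above the mean of all compounds, about 16000 in these data; inconclusive = too few beads counted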;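 note: 100 nL of 1 mM stock went into each well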
# Mtb hypoxia rep growth – second read-out of Mtb hypoxia rep, no call of its own (marks repeat the call); growth inhibition, %; measured here: M. tuberculosis growth (absorbance);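 0% = vehicle and 100% = reference antibiotic; read after six days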
# Numbers without * were called inactive; ? = inconclusive; . = not tested or not shown; & = joins results of further samples.
SMILES,BJeLR lethal,ugtP null kill,PrP 5UTR inh,Mtb hypoxia rep,Mtb hypoxia rep growth,RN4220 kill,Autofluor counter
O=C1CSC(c2cccnc2)N1c1ccc(F)cc1 (configuration not stated),-4.9,3.8,-26.5,0.3,5.9,5.8,.
Cc1ccc(OCCCn2ccnc2)c(Br)c1,2.8,15.8,-13.5,8.3,-1.0,6.3,2793
COc1ccc(C)cc1NC(=O)c1nnn(Cc2cccc(C(F)(F)F)c2)c1N,-20.0,98.1*,-14.1,11.0,6.9,-3.0,2775
CCC(C)=NNc1ccc(S(=O)(=O)N2CCCC2)cc1[N+](=O)[O-],.,0.1,.,9.2,10.6,3.5,.
CCOC(=O)Cn1cnc2c(sc3nc(C)cc(C)c32)c1=O,-1.8,2.7,-31.5,2.5,9.7,5.2,4515
Cc1ccc(S(=O)(=O)NC(=NC(C)C)c2ccccc2)cc1,-2.1,2.1,-28.9,-8.5,-3.9,4.3,4364
O=[N+]([O-])c1cccc(S(=O)(=O)Nc2ccc(-c3ccc(N4CCOCC4)nn3)cc2)c1,3.2,1.8,-14.1,-5.7,4.9,-1.7,6441
O=C(Cc1cccc2ccccc12)Nc1ccccc1Br,-13.0,5.5,-8.9,-0.5,-0.5,5.4,4135
CC1C/C(=N/N2C(=O)CSC2=S)CC(C)(C)C1 (configuration not stated),-5.5,.,-1.7,.,.,.,4770
CCCc1cc(C(=O)Nc2ccc(C(=O)c3ccccc3)cc2)n(C)n1,0.6,-5.4,-5.8,1.2,11.7,-0.5,5928
O=C(c1ccc(NS(=O)(=O)c2cccc3cccnc23)cc1)N1CCCCC1,-2.5,7.9,-26.9,7.3,7.4,0.1,4930
Nc1nc(SCC(=O)NC2CCCCC2)n[nH]1,2.7,0.6,-12.9,3.7,-2.9,2.7,5812
Cc1ccc(/C=C2/SC(=S)N(CCCC(=O)Nc3cc([N+](=O)[O-])ccc3O)C2=O)cc1,-4.7,-2.5,-12.9,-2.6,-5.3,10.6,6040
Cc1cc(C)cc(OCC(=O)NN=Cc2ccc([N+](=O)[O-])o2)c1,.,26.0,.,7.5,23.8,31.8,.
CCc1sc(NC(=O)CN2CCC(C(N)=O)CC2)nc1-c1ccccc1,-4.4,7.0,-24.2,11.4,8.0,10.5,3483
Cc1cccc2cc(C#N)c(NCCCn3ccnc3)nc12,3.8,-6.3,2.1,10.1,7.7,5.3,19585*
CCOC(=O)C1(CC(C)=NNC(N)=O)CC(C)OC1=O (configuration not stated),.,-1.3,.,-1.7,-5.3,-3.2,.
NNC(=O)CNC(c1ccccc1)c1cc(Br)ccc1N (configuration not stated),10.8,7.7,0.7,9.5,2.5,1.9,4655
CCc1ccccc1NC(=O)Nc1cccc(F)c1,11.9,0.4,-13.4,3.0,0.9,-4.8,2166
COc1ccc(S(=O)(=O)O/N=C2\CCCc3ccccc32)cc1,-2.7,.,-10.0,.,.,.,3398
O=C(CSc1ncccc1C(=O)O)c1ccc2ccccc2c1,5.7,-9.8,.,-0.1,2.1,14.5,9666
CN(C)c1ccc(/C=C/C(=O)c2cccnc2)cc1,0.5,-8.6,-22.1,-9.6,-10.9,-1.4,5886
COc1ccc(C(C)=O)cc1COC(=O)CCNS(=O)(=O)c1ccc(C)c(C)c1,-4.6,6.6,-7.8,1.5,-8.9,5.9,6346
Cc1ccc(OCC(=O)NC2CCS(=O)(=O)C2)c([N+](=O)[O-])n1 (configuration not stated),-6.9,4.0,-15.9,10.4,1.5,2.3,6087
CN1C(=O)/C(=C\c2ccccc2OCc2ccccc2)SC1=S,-5.1,0.2,-20.5,1.0,6.1,2.4,4259
# (next part)
SMILES,BJeLR lethal,ugtP null kill,PrP 5UTR inh,Mtb hypoxia rep,Mtb hypoxia rep growth,RN4220 kill,Autofluor counter
Cc1ccccc1Nc1nc(N)nc(CSc2nc3ccccc3c(=O)n2C)n1,-1.0,-12.1,-14.9,.,.,-1.0,2434
Cc1ccc(NS(=O)(=O)c2cc([N+](=O)[O-])ccc2N/N=C/c2sc(N3CCOCC3)nc2-c2ccccc2)c(C)c1,-5.6,.,-35.8,.,.,.,5747
O=C(CC(O)CCc1ccccc1)c1ccc(O)cc1 (configuration not stated),.,1.8,79.3*,.,.,4.2,4848
COC(=O)Nc1nn(-c2ccc(Cl)cc2)c(=O)c(C#N)c1C,10.0,1.5,-18.8,3.4,1.5,1.7,3395
COCCn1c(=NC(=O)CCS(=O)(=O)c2ccccc2)sc2cc(F)ccc21,0.5,3.2,0.0,1.5,2.4,-2.1,4712
COc1cc(CNC2CCCCCCC2)ccc1OCC(N)=O,-5.1,13.7,13.0,10.1,3.0,3.3,3396
COc1ccc(C=NNC(=O)c2ccc(NC(=O)c3cccc([N+](=O)[O-])c3)cc2)c(OC)c1,.,0.8,.,-3.3,3.6,-0.1,.
CC1CCN(C(=O)CNS(=O)(=O)c2ccc(Br)s2)CC1,3.1,17.1,-16.8,11.3,-1.5,8.7,8523
CN(C)c1ccc(C=NNc2nc3ccccc3o2)cc1,.,18.7,.,0.5,8.5,2.3,.
Cc1ccc(N(C)S(=O)(=O)c2ccc3c(c2)CC(C)N3C(=O)C2CC2)cc1 (configuration not stated),14.3,4.9,-31.1,8.7,2.9,5.2,4293
Cc1cc(C(F)F)n2nc(C(=O)Nc3c(F)cc(F)cc3Br)nc2n1,-8.8,6.0,-6.3,.,.,-0.1,3397
COCCSc1ccccc1C(=O)N1CCC(Cc2ccccc2)CC1,-2.4,1.4,3.6,19.0,11.6,4.6,5126
O=C(N/N=C/c1ccc[nH]1)c1cccc(Br)c1,-10.0,.,-18.8,.,.,.,2523
COc1cc2[nH]c(=S)n(Cc3ccccc3)c(=O)c2cc1OC,3.1,11.4,-9.9,-6.8,-3.1,6.4,3425
O=C(CSc1nnc2n(C3CCCCC3)c(=O)c3ccccc3n12)OC1CCCCC1,-21.0,-0.5,5.5,7.9,4.6,2.7,19972*
Cc1ccc(NC(=O)C(C)N2C(=O)c3ccccc3S2(=O)=O)cc1Cl (configuration not stated),4.7,-4.8,-3.7,-3.6,19.2,5.5,.
O=C(NNC(=O)C1CCC1)c1ccc(Br)cc1,-7.9,3.4,-26.0,7.3,2.9,0.8,4959
Cc1ccccc1-c1nnn(Cc2ccc(-c3nn[nH]n3)cc2)n1,2.6,-0.7,-41.2,-3.9,-2.0,10.5,4687
COc1ccccc1NC(=S)N(CCN1CCOCC1)Cc1ccccc1F,1.7,-7.0,-25.4,9.4,7.7,-2.1,7632
O=C(NC1CC1)C1=CC(c2ccc3c(c2)OCO3)CC(OCc2ccc(CO)cc2)O1 (configuration not stated),.,1.1&-0.3,.,-3.2&4.9,-0.2&-7.1,3.3&5.8,.
Cc1cc(Br)ccc1NC(=O)CN(C)C(=O)CNC(=O)Cc1ccccc1,.,5.4,-7.7,-0.3,2.8,8.7,6445
Cc1ccc2[nH]c3c(c2c1)CN(C(C)C)CC3,1.9,10.3,-2.0,0.4,5.6,-0.6,4438
Cc1cccc(NC(=O)COC(=O)Cc2cccc(C(F)(F)F)c2)c1C,2.1,.,-31.5,.,.,.,2139
COc1cccc(OCC(=O)NNC(=O)C(=O)Nc2cccc(C)c2)c1,13.6,-13.8,-24.6,-7.0,-2.9,-5.0,6209
COc1cc(CN2CCN(Cc3ccc4cc(F)ccc4n3)CC2CCO)cc(OC)c1 (configuration not stated),-11.8,-6.7,-14.5,-6.0,-6.9,3.7,5472
# The list continues.
SMILES,BJeLR lethal,ugtP null kill,PrP 5UTR inh,Mtb hypoxia rep,Mtb hypoxia rep growth,RN4220 kill,Autofluor counter
CCOC(=O)c1cnc(-n2nc(C)cc2C)[nH]c1=O,1.3,7.9,3.4,-5.3,7.1,9.0,4624
Oc1c(Br)cc(Br)cc1C=Nc1ccc2c(c1)OCO2,2.4,4.6,-26.3,9.5,-4.9,-11.5,11014
O=C(NCc1ccco1)c1cccnc1Cl,-0.8,10.4,-13.3,7.5,2.4,4.8,2647
COc1ccc2[nH]c(=O)c(CN(C(=O)c3cccnc3)c3ccccc3)cc2c1,7.1,-1.0,-0.4,0.1,2.4,-5.7,3044
COc1ccc(C(=O)Nc2ccc(S(=O)(=O)Nc3nccnc3OC)cc2)cc1,-1.6,-4.0,-26.8,-9.8,-1.0,-3.2,8554
O=[N+]([O-])c1ccc(C2=CSC3=NCCN23)cc1,4.0,-4.1,-33.9,-12.1,5.9,0.7,5468
O=C(NCc1ccccc1Cl)C1CCC(=O)N1Cc1ccc(F)cc1 (configuration not stated),-6.8,12.8,-11.4,-11.3,5.6,2.5,3433
CC(C)(C)NC(=O)CSc1nc(N)c(NC(=O)c2ccccc2F)c(=O)[nH]1,-2.5,6.1,-17.7,0.9,-4.6,5.0,3511
COC(=O)c1ccc(N=C2SCC(=O)N2C)cc1,-0.3,.,-20.8,.,.,.,3845
CC(=O)N1CC(=O)N=C1SCC(=O)Nc1nc(C)c(-c2ccccc2)s1,-15.0,-14.2,-8.9,-1.3,12.9,36.5,3311
Cc1cccc(N2CCN(C(=O)c3ccc(N4CCCC4=O)cc3)CC2)c1C,-5.8,4.6,-6.7,.,.,3.0,7361
Cc1c(C)n(Cc2ccc(F)cc2)c2ccc(C(=O)NCCCN3CCOCC3)cc12,5.9,-8.2,-19.9,-0.1,1.0,-3.5,5060
O=[N+]([O-])c1ccccc1S(=O)(=O)N1CCN(C2CCN(Cc3ccccc3)CC2)CC1,6.4,9.9,-16.3,9.3,0.0,1.6,6611
CC(Oc1ccc2c3c(c(=O)oc2c1)CCC3)C(=O)NCc1ccccn1 (configuration not stated),5.9,7.3,-20.0,7.0,-1.3,-0.7,6651
O=C(Nc1nnc(SCc2ccccc2F)s1)c1ccco1,6.1,0.7,-6.3,12.3,5.5,4.2,2221
CC(C)(C)c1ccc(/C=N/OCC(=O)NCc2ccccc2)cc1,7.9,.,-31.9,.,.,.,7690
O=C(CSc1nnc(SCc2ccccc2)s1)NN=Cc1c(Cl)cccc1Cl,.,-5.8,.,-3.7,-5.9,-4.8,.
CCc1cc2c3c(c1)/C(=C1/SC(N)=NC1=O)C(=O)N3C(C)(C)C=C2C,-1.7,-2.3,9.7,12.8,6.5,3.0,?
COc1cccc(NC(=S)NNC(=O)Cn2nc(C(F)(F)F)cc2C)c1,-3.3,-4.9,-14.3,-5.0,12.9,3.5,2248
C[C@]12CCC3C(CC[C@H]4C[C@H](O)CC[C@]34C)C1CCC2=O (some centres not stated),.,2.4,-3.9,8.9,5.7,4.8,3914
Cc1ccc(COc2cccc(C=NNC(=O)c3nnn(-c4nonc4N)c3C)c2)cc1,.,-5.2,.,-5.8,-10.0,4.6,.
Cc1cccc(-n2ncc(C#N)c2-n2cccc2)c1,-4.3,0.7,-20.0,-3.8,5.5,4.7,19053*
COc1ccc2oc(C(=O)Nc3ccccn3)c(C)c2c1,0.7,-5.7,-81.5,-2.3,3.4,5.7,4946
Cc1ccc(C)c(N2CCN(C(=O)C3CCN(S(=O)(=O)c4cccc5nsnc45)CC3)CC2)c1,-1.2,0.6,-24.3,.,.,-0.4,4263
NS(=O)(=O)c1ccc(CNC(=O)CSc2nc3ccc(Cl)cc3[nH]2)cc1,-0.6,9.9,-10.5,8.4,9.9,-2.3,3802
CCCn1c(O)c(N=N)c2ccccc21,4.9,11.5,-13.0,-8.7,-4.5,10.5,5547
CCOC(=O)c1ccc(NC(=S)N(CCCN2CCCCC2)Cc2ccco2)cc1,1.2,6.5,-11.0,-2.3,1.5,3.7,11789
CCc1nc(NC2CCCCC2)c(C#N)c2c1COC(C)(C)C2,-1.5,79.2,-42.9,.,.,-6.0,4621
COC(=O)[C@H](CCSC)NC(=O)Nc1ccc(C(C)=O)cc1,-2.9,-2.2,.,0.1,10.6,3.0,11196
OCCCCNCc1cc(Br)ccc1OCc1ccccc1F,44.9,1.8,-25.2,0.0,4.8,0.2,4481

# An excerpt from above, reduced to PrP 5UTR inh and ugtP null kill:
SMILES | PrP 5UTR inh | ugtP null kill
COC(=O)[C@H](CCSC)NC(=O)Nc1ccc(C(C)=O)cc1 | . | -2.2
CCCn1c(O)c(N=N)c2ccccc21 | -13.0 | 11.5
Cc1c(C)n(Cc2ccc(F)cc2)c2ccc(C(=O)NCCCN3CCOCC3)cc12 | -19.9 | -8.2
CC(Oc1ccc2c3c(c(=O)oc2c1)CCC3)C(=O)NCc1ccccn1 (configuration not stated) | -20.0 | 7.3
